Source: PubChem BioAssay (National Center for Advancing Translational Sciences (NCATS))
Epigenetic reg: Quantitative High-Throughput Screen for Regulators of Epigenetic Control; murine LDR cells, GFP reporter derepression, 30 h; Potency, µM (doses to about 53.9 µM), inactives show at the highest dose GFP activation, usual class: activators; 280,000 compounds, 0.2% hits; note: % of control where 0% means no effect; nearly all actives have a fitted effect of over 60% in size
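GFP-positive cell count by laser-scanning cytometry (objects 20–120 um) after 30 h, 37 C compound exposure of murine LDR cells; reporter is CMV-GFP integrated at a silenced locus, inducible by HDAC or DNMT inhibitors.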
Luc counter: Counterscreen for Luciferase (Kinase-Glo TM) Inhibition; Luciferin 4-monooxygenase (Photuris pensylvanica), Q27757; Kinase-Glo luciferase, ATP luminescence, 8 min; Potency, µM (top dose mostly 38.3 µM), inactives show at the top dose activity change, negative = inhibition, most hits filed as inhibitors; 200,000 compounds, 0.28% hits; AID 1379, 2008; note: % is set by controls: 0 for no effect and ±100 for the full control effect; nearly all actives have a fitted effect of over 60% in size
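Light output from Kinase-Glo luciferase with luciferin and 10 uM ATP in 50 mM imidazole pH 7.2, KCl, MgCl2, Tween 20, BSA; compound pin-delivered, 8-min ambient incubation, then luminescence read.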
RECQ1 inh: qHTS Assay for Inhibitors of RecQ-Like Dna Helicase 1 (RECQ1); Potency, µM (titrated, usually from 57.3 µM), inactives show at the top dose activity, negative = inhibition, hits mostly inhibitors; ATP-dependent DNA helicase Q1 (Homo sapiens), P46063; RECQ1 DNA unwinding, red fluorescence kinetic read; AID 2549, 2010; 240,000 compounds, 0.54% hits;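 note: plate controls were vehicle for no effect and no enzyme for full effect; nearly all actives have a fitted effect of over 30% in size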
Target sequence (P46063 whole entry, looked up): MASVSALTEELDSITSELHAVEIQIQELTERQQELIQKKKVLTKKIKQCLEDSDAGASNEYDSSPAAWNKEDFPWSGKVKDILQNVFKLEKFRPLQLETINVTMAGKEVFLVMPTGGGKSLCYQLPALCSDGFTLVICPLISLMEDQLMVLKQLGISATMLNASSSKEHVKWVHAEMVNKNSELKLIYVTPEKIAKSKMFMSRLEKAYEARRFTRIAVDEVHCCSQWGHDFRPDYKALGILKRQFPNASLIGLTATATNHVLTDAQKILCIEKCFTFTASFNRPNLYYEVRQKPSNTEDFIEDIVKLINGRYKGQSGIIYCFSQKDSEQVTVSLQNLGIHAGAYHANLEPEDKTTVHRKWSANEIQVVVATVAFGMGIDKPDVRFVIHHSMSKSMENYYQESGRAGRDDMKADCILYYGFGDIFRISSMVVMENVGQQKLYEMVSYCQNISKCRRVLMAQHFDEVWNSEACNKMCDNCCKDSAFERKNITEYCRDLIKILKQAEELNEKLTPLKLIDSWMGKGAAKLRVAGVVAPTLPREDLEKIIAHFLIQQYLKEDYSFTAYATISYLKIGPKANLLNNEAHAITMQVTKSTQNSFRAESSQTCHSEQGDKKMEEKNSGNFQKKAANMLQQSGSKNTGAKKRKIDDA
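50 nM RECQ1T1 preincubated 15 min with compound in Tris pH 8.0 buffer with MgCl2, DTT, Tween-20 and 2.5 ug/ml poly(dI-dC); started with 200 nM TAMRA/BHQ-2 forked duplex and 2 mM ATP. Unwinding read as fluorescence (525/598 nm), two reads 2 h apart.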
SMN2 splice up: qHTS Assay for Enhancers of SMN2 Splice Variant Expression. HEK293 SMN2-luciferase splicing reporter, luminescence, 30-36 h. 210,000 compounds, 2.8% hits. Potency, µM (series often up to 46.1 µM), inactives show top-dose activity change, positive = activation, most hits filed as activators; note: % of control where 0% means no effect; nearly all actives have a fitted effect of over 55% in size
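qHTS luciferase splicing reporter: luminescence rises when SMN2 exon 7 is included in transfected HEK293 cells. Compound exposure lasted 30-36 h at 37C, with 4.5 mM final sodium butyrate as control, followed by a ONE-Glo read.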
Active calls of the source: *; i = inactive; . = not tested or not shown; & = joins results of further samples; [ ] = dose if it differs, or a comment. Calls come from the whole dose curve; as a rule, active = well fitted curve in the direction sought with a large enough effect; inconclusive = small, poorly fitted or top-dose-only effect, or another doubt; inactive = no such curve, though single readings can be large; an effect the other way counts as inactive or inconclusive. Potency is the fitted concentration of half-maximal effect. This is a subset, so the mix of outcomes need not match the whole.

SMILES	Epigenetic reg	Luc counter	RECQ1 inh	SMN2 splice up
COc1ccc(-c2n[nH]c(=S)n2-c2ccc3c(c2)OCCO3)cc1OC	2.1%	3.9%	i	.
O=P(C(Cl)Cl)(N1CCCCC1)N1CCCCC1	0.7%	1.0%	-7.1%	-7.0%
CC(C)CCOC(=O)c1c(N)n(CC2CCCO2)c2nc3ccccc3nc12 (stereo unspecified)	-0.6%	0.4%	-8.2%	-10.2%
CC(C)C1C(c2ccccc2)N(C)C(c2ccccc2)CC1(O)c1ccccc1 (stereo unspecified)	0.1%	-6.6%	i	-14.5%
CN[C@@H](C)[C@H]1CC[C@@H](N)[C@@H](O[C@@H]2[C@@H](O)[C@@H](O[C@H]3OC[C@@](C)(O)[C@@H](NC)[C@@H]3O)[C@H](N)C[C@@H]2N)O1 (tested in a mixture with another compound)	-1.4%[16.9 µM]	-6.6%[17.1 µM]	-2.3%[25.9 µM]	1.8%[20.6 µM]
CCCN1CCC[C@@H]2Cc3cn[nH]c3C[C@H]21	0.6%	-0.4%[39.9 µM]	i	.
CN1C[C@H](CNC(=O)OCc2ccccc2)C[C@@H]2c3cccc4c3c(cn4C)C[C@H]21	-1.6%&0.5%&-0.1%&1.1%&-4.6%	-17.6%	7.1%&-6.6%&5.3%&-4.6%	-43.1%&-36.9%&-22.5%[inhibitor]
Cc1cccc(N2CCN(C(=O)C34CC5CC(CC(C5)C3)C4)CC2)c1C	0.0%	-0.8%	-1.7%	.
CC(C)=CCC[C@]1(C)[C@@H](CC=C(C)C)C[C@@]2(CC=C(C)C)C(=O)[C@]1(C(=O)C(C)C)C(=O)C(CC=C(C)C)=C2O	1.9%	.	0.0%	-64.9%[inhibitor]
Cc1c(C(=O)c2cccc3ccccc23)c2cccc3c2n1[C@H](CN1CCOCC1)CO3	-0.2%&2.1%&-2.2%	0.1%&-0.6%	-14.1%&-4.3%&-26.5%	-50.3%&-3.9%&-2.5%[inhibitor]
NC1CC1c1ccccc1 (stereo unspecified)	-0.2%	-0.8%	-7.9%	-5.7%
Cc1nc2cc(C(F)(F)F)ccc2n1C1CCN(Cc2nnnn2CCc2ccccc2)CC1	-1.0%	0.1%	2.7%	-11.9%
Cc1ccc(O)c(C(=O)c2cc(C(=O)NCCC(C)C)c(=O)n(CCC(C)C)c2)c1	0.1%	0.1%	-7.2%	-13.0%

Some of these compounds in order of molar mass, low to high.
SMILES	Epigenetic reg	Luc counter	RECQ1 inh	SMN2 splice up
CCCN1CCC[C@@H]2Cc3cn[nH]c3C[C@H]21	0.6%	-0.4%[39.9 µM]	i	.
O=P(C(Cl)Cl)(N1CCCCC1)N1CCCCC1	0.7%	1.0%	-7.1%	-7.0%
Cc1cccc(N2CCN(C(=O)C34CC5CC(CC(C5)C3)C4)CC2)c1C	0.0%	-0.8%	-1.7%	.
CC(C)C1C(c2ccccc2)N(C)C(c2ccccc2)CC1(O)c1ccccc1 (stereo unspecified)	0.1%	-6.6%	i	-14.5%
CN1C[C@H](CNC(=O)OCc2ccccc2)C[C@@H]2c3cccc4c3c(cn4C)C[C@H]21	-1.6%&0.5%&-0.1%&1.1%&-4.6%	-17.6%	7.1%&-6.6%&5.3%&-4.6%	-43.1%&-36.9%&-22.5%[inhibitor]
Cc1ccc(O)c(C(=O)c2cc(C(=O)NCCC(C)C)c(=O)n(CCC(C)C)c2)c1	0.1%	0.1%	-7.2%	-13.0%
Cc1c(C(=O)c2cccc3ccccc23)c2cccc3c2n1[C@H](CN1CCOCC1)CO3	-0.2%&2.1%&-2.2%	0.1%&-0.6%	-14.1%&-4.3%&-26.5%	-50.3%&-3.9%&-2.5%[inhibitor]
Cc1nc2cc(C(F)(F)F)ccc2n1C1CCN(Cc2nnnn2CCc2ccccc2)CC1	-1.0%	0.1%	2.7%	-11.9%
CN[C@@H](C)[C@H]1CC[C@@H](N)[C@@H](O[C@@H]2[C@@H](O)[C@@H](O[C@H]3OC[C@@](C)(O)[C@@H](NC)[C@@H]3O)[C@H](N)C[C@@H]2N)O1 (tested in a mixture with another compound)	-1.4%[16.9 µM]	-6.6%[17.1 µM]	-2.3%[25.9 µM]	1.8%[20.6 µM]
